Cruzain Triton: inhibitors of Trypanosoma cruzi cruzain with detergent | Potency, µM, without a hit: max response, negative = inhibition, most hits filed as inhibitors | P25779 | AID 1478 | 0.43% of 200,000 active | purified cruzain, Z-FR-AMC fluorescence, 0.01% Triton; active means well fitted curve in the direction sought with a large enough effect; inconclusive means small, poorly fitted or top-dose-only effect, or another doubt; inactive means no such curve, though single readings can be large; an effect the other way counts as inactive or inconclusive;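 further: plate controls were neutral wells for no effect and buffer without enzyme for full effect; nearly all actives have a fitted effect of over 40% in size; top concentration of the series not given in the record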
Target sequence (P25779 123-467 limits assumed): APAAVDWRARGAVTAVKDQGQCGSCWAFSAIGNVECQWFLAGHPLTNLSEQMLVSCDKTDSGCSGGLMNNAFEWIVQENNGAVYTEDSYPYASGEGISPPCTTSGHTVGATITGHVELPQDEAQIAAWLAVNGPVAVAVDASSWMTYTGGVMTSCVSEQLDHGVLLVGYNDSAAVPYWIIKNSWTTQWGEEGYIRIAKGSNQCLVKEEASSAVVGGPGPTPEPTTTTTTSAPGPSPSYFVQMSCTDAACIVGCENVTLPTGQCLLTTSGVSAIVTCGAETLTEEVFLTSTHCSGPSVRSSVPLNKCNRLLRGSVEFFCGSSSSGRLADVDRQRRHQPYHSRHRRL
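Detergent-containing arm of a paired screen for aggregation-based inhibition: 0.01% Triton X-100 present. Cruzain at 1.5 nM cleaved 2 uM Z-FR-AMC at pH 5.5 with 5 mM DTT; AMC fluorescence gain over 60 s measured activity.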
SARS PLP yeast: SARS-CoV PLP inhibition in yeast | S. cerevisiae expressing SARS-CoV PLpro, growth rescue; control for the full effect not named in the record | Potency, µM (highest dose often 32.9 µM), without a hit: at the top dose activity, positive = growth rescue | 0.19% of 330,000 active | AID 485353; further: 0% is about no effect; nearly all actives have a fitted effect of over 55% in size; growth read by luminescence after 48 h
Cruzain inh noDet: cruzain (T. cruzi) inhibition without detergent; P25779; purified cruzain, Z-FR-AMC fluorescence, no detergent; Potency, µM, inactives show max response, negative = inhibition, most hits filed as inhibitors; 2.3% of 200,000 active; AID 1476; active means well fitted curve in the direction sought with a large enough effect; inconclusive means small, poorly fitted or top-dose-only effect, or another doubt; inactive means no such curve, though single readings can be large; an effect the other way counts as inactive or inconclusive;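 further: plate controls were enzyme without inhibitor for no effect and buffer without enzyme for full effect; nearly all actives have a fitted effect of over 40% in size; top concentration of the series not given in the record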
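Detergent-free condition (0.00005% Triton X-100) in acetate buffer pH 5.5 with DTT. 1.5 nM enzyme and compound were pre-mixed 15 min, then 2 uM Z-FR-AMC substrate added; reaction progress from fluorescence change between first and third reads (60 s).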
RE007 growth inh: less growth of the S. pombe RE007 Vpr strain. S. pombe RE007 Vpr strain, BacTiter-Glo ATP luminescence, 24 h; control for the full effect not named in the record. 0.21% of 360,000 active. Potency, µM (series often up to 92.2 µM), for inactives: top-dose activity change, negative = less growth. AID 651644; active = well fitted falling curve with a large enough effect; inconclusive = small, poorly fitted or top-dose-only effect; inactive = no such curve, though single readings can be large or run the other way;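 further: on the % scale 0 is the no-effect control and ±100 the full control effect; nearly all actives have a fitted effect of over 50% in size; the assay follows cell death caused by Vpr and the record does not say whether a fall means rescue or toxicity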
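Fission yeast RE007 carrying one integrated HIV-1 vpr copy, seeded at OD 0.01 in PMG+AL medium with 23 nL pinned compound. Grown 24 h at 30 degrees; viability read by BacTiter-Glo luminescence after 5 min.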
StopGo reporter: FMDV 2A StopGo reporter, luciferase signal | human cells with a luciferase reporter of 2A StopGo recoding; control for the full effect not named in the record | Potency, µM (top dose mostly 57.9 µM), for inactives: at the top dose signal change, negative = less light | 1.2% of 410,000 active; active = well fitted falling curve with a large enough effect; inconclusive = small, poorly fitted or top-dose-only effect; inactive = no such curve, though single readings can be large or run the other way; tested in HEK293T cells; further: on the % scale 0 is the no-effect control and ±100 the full control effect; nearly all actives have a fitted effect of over 45% in size; luciferase light after 4 h
LASV entry inh: inhibitors of Lassa virus binding or cell entry | AID 540256 | Potency, µM (doses to about 37.9 µM), for the others: at the top dose activity change, negative = inhibition, actives largely listed as inhibitors | Lassa virus pseudotype entry inhibition, cell reporter; control for the full effect not named in the record | 1.2% of 300,000 active; active means well fitted inhibition curve with a large enough effect; inconclusive means small, poorly fitted or top-dose-only effect, or effect the other way; inactive means flat fitted curve, though single readings scatter; tested in HEK293 cells; further: on the % scale 0 is the no-effect control and ±100 the full control effect; nearly all actives have a fitted effect of over 50% in size; luciferase read-out
Marburg entry inh: inhibitors of Marburg virus binding or cell entry | Marburg virus pseudotyped entry inhibition, cell reporter; control for the full effect not named in the record; about a third of the inactives were read at about 46 µM | Potency, µM (series often up to 37.8 µM), without a hit: at the highest dose activity change, negative = inhibition, most hits filed as inhibitors | 1.8% of 300,000 active; active = well fitted inhibition curve with a large enough effect; inconclusive = small, poorly fitted or top-dose-only effect, or effect the other way; inactive = flat fitted curve, though single readings scatter; tested in HEK293 cells; about a fifth of its hits are not listed in these tables; further: on the % scale 0 is the no-effect control and ±100 the full control effect; luciferase read-out
NS1 function inh: inhibitors of influenza NS1 protein function; S. cerevisiae slowed by influenza A NS1, growth recovery by OD600; Potency, µM (doses to about 46.1 µM), inactives show at the top dose activity, positive = more growth; 0.4% of 270,000 active; AID 2326; further: actives are rising curves; nearly all actives have a fitted effect of over 50% in size
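Recovery from NS1-induced slow growth read by OD600 in budding yeast switched to galactose assay medium (pH 6.0, -URA) at 1:100 dilution. Compound 23 nl per well; the matching strain lacking NS1 serves as control.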
The depositor's hits bear a star; ? = inconclusive; nt = no result given; & = joins results of further samples; [ ] = remark or other dose. Unless noted, the call rests on the fitted dose curve; in most records, active means well fitted rising curve with a large enough effect; inconclusive means small, poorly fitted or top-dose-only effect; inactive means no such curve, though single readings can be large or run the other way. Potency means the concentration at half of the fitted maximal effect.

SMILES	Cruzain Triton	SARS PLP yeast	Cruzain inh noDet	RE007 growth inh	StopGo reporter	LASV entry inh	Marburg entry inh	NS1 function inh
COc1ccc(C)cc1NC(=O)c1cccc(-c2ccc(OC(C)=O)cc2)c1	nt	0%	nt	-2%	-20%	-17%	?	15%
CCOC(=O)c1cccc(P(C)(C)=O)c1	-0.5%	2%	-1%	-4%	-7%	2%	?	8%
CCOC(=O)c1ccccc1NC(=O)Cc1c(C(=O)O)c(C)cn1C	-0.6%	nt	-9%	nt	-11%	?	nt	nt
COc1cc(-c2nc3cnccc3n2C)cc(OC)c1OC	4.0%	-2%	8%	-2%	0%	-3%	3%	-5%
CCc1ccc(OCC2c3cc(OC)c(OC)cc3CCN2C(=O)c2ccc(S(=O)(=O)N3CCCC3)cc2)cc1 (centres undefined)	0.5%	nt	13%	nt	-5%	?	nt	nt
O=C(NNc1cccc(Cl)c1)c1cccnc1Cl	-4.7%	-40%	2%	58%	6%	-5%	0%	-58%
C#CCN1C(=O)C2(OCCO2)c2ccccc21	nt	-6%	nt	-3%	-5%	23%[46.1 µM]	1%[46.1 µM]	1%
CC1CCN(C(=O)CCc2ccc(S(=O)(=O)NC(C)(C)C)cc2)CC1	1.4%	-13%	8%	10%	nt	1%	?	-14%
Cc1cc(NS(=O)(=O)c2ccc(NC(=O)c3ccc(Cl)cc3[N+](=O)[O-])cc2)no1	nt	-3%	nt	-11%	?	4%	22%	18%
COCCCN(CCNC(=O)c1ccc(NC2=NC3CS(=O)(=O)CC3S2)cc1)Cc1ccco1 (centres undefined)	nt	0%	nt	-3%	-19%	nt	nt	-10%
Cc1occc1C(=O)Nc1cccnc1	3.3%	-1%	10%	13%	10%	24%	10%	30%
O=C(COc1ccc([N+](=O)[O-])cc1)N(C1CCCCC1)C1CCS(=O)(=O)C1 (centres undefined)	nt	4%	nt	-14%	-16%	1%	-9%[46.1 µM]	nt
O=C(N/N=C/c1ccccc1)c1[nH]ncc1Br	nt	-1%	nt	-13%	34%[activator]	-14%	?	nt
CCOc1cc(/C=C2\SC(=N)N(c3nonc3N)C2=O)ccc1OCCN1CCOCC1	nt	1%	nt	-4%	22%	nt	nt	-5%
COc1ccc(/C=C(\NC(=O)c2ccccc2)C(=O)N2CCCCC2)cc1OC	nt	-12%	nt	-8%	7%	nt	nt	-62%
CCOC(=O)C1CCN(C2=NC(=O)/C(=C/c3ccc(OC)c(OC)c3)S2)CC1	nt	1%	nt	1%	-12%	nt	nt	-3%
Cc1ccc(S(=O)(=O)N2CCC(CN3C(=O)c4cccc5cccc(c45)C3=O)CC2)cc1	-6.0%	1%	?	12%	-12%	-14%	-13%	?
CCN1CCN(c2ncc(C(=O)Nc3cc(Cl)ccc3OC)c3ccccc23)CC1	-5.4%	-2%	-5%	16%	-25%	?	2µM*	-3%
CC1=Nc2ccccc2/C1=C/c1c(O)[nH]c(=O)[nH]c1=O	nt	11%	nt	20%	-14%	nt	nt	24%
COc1ccc(CC(=O)Nc2ccccc2C(=O)N2CCOCC2)cc1	0.7%	-17%	5%	-19%	-3%	2%	2%	8%
Cc1cccc(-c2nc3c4ccccc4nc(NCc4ccc(Cl)cc4)n3n2)c1	-0.6%	nt	-15%	nt	19%	nt	?	nt
Cc1cccn2c(CN(C)CC3CCCCO3)c(C(=O)N3CCCCC3)nc12 (centres undefined)	nt	-1%	nt	2%	-2%	-21%[46.1 µM]	?	-4%
COc1ccc(CCn2c(=N)c(S(=O)(=O)c3ccc(C)cc3)cc3c(=O)n4ccccc4nc32)cc1	nt	-3%	nt	-9%	-10%	nt	nt	12%
CC(C)=C(NC(=O)c1ccccc1)C(=O)NCCCC(=O)O	6.3%	0%	-4%	-2%	nt	-1%	12%	-2%
COc1ccc(C(=O)N/N=C/c2cccc3cccnc23)cc1	-1.2%	-11%	-5%	-19%	15%	?	?	-51%
CCOC(=O)c1c(NC(=O)CS(=O)(=O)c2ccc(C)cc2)sc2c1CCC(C)C2 (centres undefined)	-8.1%	nt	?	nt	-8%	-6%[46.1 µM]	nt	nt
C=CCn1c(SCc2nc3ccccc3[nH]2)nnc1-c1ccncc1	-0.1%	2%	1%	-17%	15%	3%	20%	3%
Cc1ccc2oc3c(c(=O)c2c1)C(c1ccc(F)cc1)N(Cc1ccc2c(c1)OCO2)C3=O (centres undefined)	-0.3%	nt	3%	nt	-12%	27%[46.1 µM]	?	nt
CN(C)c1ccc(S(=O)(=O)NCC(=O)NCCC2=CCCCC2)cc1[N+](=O)[O-]	nt	1%	nt	-13%	-3%	-22%	-5%	nt
CC1CC(C)CN(C(=O)c2cccc(S(=O)(=O)N(C)c3ccccc3)c2)C1 (centres undefined)	nt	3%	nt	0%	0%	?	?	nt
CCOC(=O)c1[nH]cnc1N=Nc1c(O)ccc2ccccc12	-1.4%	7%	5%	-18%	-19%	?	?	11%
NC(=O)CC(NC(=O)Cc1ccc(Br)cc1)c1ccc(NC2CCC2)c([N+](=O)[O-])c1 (centres undefined)	nt	2%	nt	4%	-21%	nt	-1%	11%
CC(=O)c1ccc(NC(=O)[C@@]2(CC(=O)O)CC(/C=C/c3ccccc3)=NO2)cc1	nt	-2%	nt	-1%	-15%	nt	nt	-4%
COc1ccccc1CNC(=O)C1CCN(c2nn3c(=O)cc(C)nc3s2)CC1	-6.6%	nt	-6%	nt	10%	-25%[46.1 µM]	1%[46.1 µM]	nt
COc1ccc(COCC(O)CN2CC(C)OC(C)C2)cc1OC (centres undefined)	2.4%	-3%	-7%	11%	-22%	4%	-1%	16%
Cn1c(=O)c(/C=C/c2ccc(F)cc2)nc2ccccc21	nt	0%	nt	-12%	43%[activator]	-12%	7%	-2%
COc1ccc(-c2[nH]c(-c3cccc(OC)c3)nc2SCC(=O)NCc2ccco2)cc1	-3.6%	-16%	-1%	-6%	-1%	nt	3%	-32%
CCOC(=O)C(Cc1cc(N)c(Oc2ccc(OC)cc2)c(N)c1)NC(C)=O (centres undefined)	nt	nt	nt	0%	7%	0%	1%	nt
O=C(Nc1ccc(F)c(Cl)c1)C1CCCN(c2cnccn2)C1 (centres undefined)	-4.0%	0%	-10%	-7%	-23%&-25%	23%[46.1 µM]	-13%&-13%[46.1 µM]	-14%
Cc1ccc(C(=O)N/C(=C/c2ccco2)C(=O)NCC2CCCO2)cc1 (centres undefined)	-4.1%	-3%	?	-1%	-1%	3%	23%	-1%
CC(C)(C)NC(=O)CN(C(=O)CCC(=O)Nc1nccs1)c1cccc(C(F)(F)F)c1	nt	-6%	nt	-18%	17%	nt	nt	14%
CSCCC(NS(=O)(=O)c1ccc2c(c1)oc(=O)n2C)C(=O)NCc1ccc(Cl)cc1 (centres undefined)	0.1%	nt	9%	nt	-15%	1%[46.1 µM]	nt	nt
O=C(CC(C(=O)O)P(=O)(c1ccccc1)c1ccccc1)c1ccc(Br)cc1 (centres undefined)	nt	0%	nt	1%	-1%	3%	5%[46.1 µM]	4%
CCOC(=O)c1c(C)n(C)c2ccc(OC)c(NC(=O)CN3CCN(C4CCCCC4)CC3)c12	-2.4%	9%	-6%	-14%	20%	-8%	?	9%
C[C@@H](C(=O)Nc1ccc2ccccc2c1)[C@H]1C[C@]1(C)[C@H](NS(=O)(=O)c1ccccc1)c1ccccc1	1.8%&2.9%	-15%	?	-2%	6%	-29%	-26%	11µM*
Cc1ccc(NC(=O)COC(=O)CCC(=O)c2cccs2)cc1S(=O)(=O)N1CCOCC1	-7.1%	12%	-2%	13%	-13%	9%	7%	-3%
C(=N\Nc1nc(-c2ccccc2)cs1)/c1ccncc1	nt	-3%	nt	35%	36%[activator]	?	-19%[46.1 µM]	-7%
Cc1[nH]c(=O)[nH]c(=O)c1S(=O)(=O)N1CCCC(C(=O)NCCc2ccccc2)C1 (centres undefined)	-1.0%	21%	-3%	22%	-17%	-4%	12%[46.1 µM]	8%
C=CCn1c(C)cc(C(=O)CSc2nnc(-c3cccc(S(=O)(=O)N(CC)CC)c3)o2)c1C	-3.0%	0%	-6%	-2%	-16%	?	-22%[46.1 µM]	?
O=S(=O)([N-]c1nc2ccccc2nc1-n1cc[n+](Cc2ccccc2)c1)c1ccc(Cl)cc1	nt	-1%	nt	2%	33%[activator]	4%	?	-7%
O=C1C2C(C(=O)N1CCc1ccccc1)C1C=CC2C12CC2 (centres undefined)	2.9%	8%	-3%	1%	nt	20%	27%	-3%
CC1CCN(S(=O)(=O)c2ccc3c(c2)c(=O)c(C(=O)N2CCN(c4cccc(Cl)c4)CC2)cn3C)CC1	-4.0%	nt	7%	nt	-23%	23%[46.1 µM]	12%[46.1 µM]	nt
CCCCn1c(SCC(=O)N2c3ccccc3Sc3ccccc32)nc2c1c(=O)n(C)c(=O)n2C	-4.1%	-35%	15%	5%	?	?	11µM*	11µM*
COc1ccc2cc(C(c3nnnn3C(C)(C)C)N3CCc4ccccc4C3)c(=O)[nH]c2c1 (centres undefined)	-2.6%	4%	4%	nt	nt	nt	nt	0%
Cc1ccc(-c2[nH]c3ccccc3c2SCCN)cc1	nt	2%	nt	-7%	-21%	nt	nt	0%
O=C(COC(=O)c1ccc(S(=O)(=O)NCc2ccco2)cc1)Nc1ccc(Cl)cn1	nt	-1%	nt	3%	11%	-11%	-14%[46.1 µM]	8%
CCOC(=O)Cc1csc(NC(=O)c2cnc3scc(C)n3c2=O)n1	nt	nt	nt	0%	15%	?	-4%	-7%
Cc1ccc(OC(C)C(=O)Nc2ccncc2)cc1 (centres undefined)	nt	-9%	nt	3%	-28%	nt	nt	0%
O=C(C1=C(O)C(=O)N(CCCN2CCOCC2)C1c1ccc(Cl)cc1)c1cc2ccccc2o1 (centres undefined)	nt	-6%	nt	-10%	-20%	nt	nt	12%
